Hsc70 ATP site = small molecules displacing fluorescent ligand from Hsc70 – biochemical, fluorescence polarization, primary screen (AID 568); Hsc70 fluorescence polarization, probe displacement; higher % means a stronger effect; strong numbers were not always called active; 83,000 tested, under 10 active; displacement, % at 20 µM, or IC50 in µM where a hit was titrated;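 active = displacement above 50% without optical interference and an IC50 on retest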;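 also: ATPase domain with a fluorescein-tagged ATP probe; 0% = vehicle and 100% = excess ADP; read after one hour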
MT1-MMP reporter = inhibitors of MT1-MMP promoter transcription, cell-based, luciferase reporter, luminescence (AID 618) | MT1-MMP promoter luciferase reporter cells, luminescence | calls from a first round at 10 µM; hits with a dose series show EC50 in µM | 0.62% of 87,000 active;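 active = over half of the reporter light lost at 10 µM or EC50 under 50 µM; inactive = the rest and hits that failed the dose series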;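 also: actives suppress MT1-MMP promoter-driven transcription so potencies describe inhibitors; HT1080 fibrosarcoma cells; overnight exposure; toxic or luciferase-blocking compounds were not removed from the actives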
WNV NS2B-NS3 inh = inhibitors of West Nile virus NS2B-NS3 protease | P06935 | WNV NS2B-NS3 protease, fluorogenic substrate Ex360/Em465; stronger effect = lower value | z-score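 (tested at a level between 10 and 100 µM)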 | 0.18% of 65,000 active | AID 577;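 active = z-score at -3 or under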;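 also: score is relative to mean and spread of the compound wells of a plate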
Target sequence (P06935 1371-1501 limits assumed): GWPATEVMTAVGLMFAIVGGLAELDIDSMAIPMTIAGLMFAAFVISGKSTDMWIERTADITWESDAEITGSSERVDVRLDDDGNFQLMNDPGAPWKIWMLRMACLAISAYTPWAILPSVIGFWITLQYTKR
Target sequence (P06935 1502-1679 limits assumed): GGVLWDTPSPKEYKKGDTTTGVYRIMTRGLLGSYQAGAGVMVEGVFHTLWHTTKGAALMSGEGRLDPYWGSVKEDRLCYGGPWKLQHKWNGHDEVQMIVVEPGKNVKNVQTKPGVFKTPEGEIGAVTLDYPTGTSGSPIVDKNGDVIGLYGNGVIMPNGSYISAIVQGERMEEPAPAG
Numbers without * were called inactive; i = inactive; x = no result given.

Values in the order: Hsc70 ATP site | MT1-MMP reporter | WNV NS2B-NS3 inh
- CCC(c1nnnn1CCc1ccccc1)N1CCN(c2ccc(OC)cc2)CC1 (stereo not given)
    -1.9% | i | 0.62
- COC(=O)c1ccc(NC(=O)CN2CCN(c3ccc(Cl)cc3)CC2)cc1
    -1.3% | i | 0.45
- COCCn1c(COC)nc2ccccc21
    0.3% | i | -0.13
- CNC(=O)C1=NCCCc2cc(OC)c(OC)cc21
    -3.7% | i | -1.1
- O=C(NCC1CCCO1)c1nn2c(c1Cl)NC(c1ccc(F)cc1)CC2C(F)(F)F (stereo not given)
    -6.7% | i | 0.19
- CNC(=O)c1ccccc1F
    2.4% | i | x
- CN1C(=S)SC(/[N+]([O-])=C/c2cccnc2)C1(C)C (stereo not given)
    0.8% | i | 0.0029
- Cc1cc(C)c2ccc(N)nc2c1O
    4.3% | i | 0.67
- COC(=O)c1cn[nH]c1N
    -2.0% | i | -0.38
- CCn1c(COc2ccc(Cl)cc2)nnc1SCC(=O)Nc1ccc2c(c1)OCO2
    2.0% | i | -0.98
- Nc1ccccc1-c1nnn(CC(=O)N2CCCc3ccccc32)n1
    -4.0% | i | x
- COC(=O)c1ccc(NC(=O)c2cccc(OC)c2)cc1
    -6.6% | i | -0.7
- CCOC(=O)c1ccccc1NC(=O)CN(c1cccc(OC)c1)S(C)(=O)=O
    -1.3% | i | -0.43
- COc1ccc(OCC(=O)N2CCN(C(=O)c3ccccc3)CC2)cc1
    1.2% | i | 0.42
- C=CCn1c(SCCCC)nc(O)cc1=O
    1.5% | i | -0.67
- COC(=O)C1=C(Nc2ccc(OC)cc2)C=C(C)C(C(=O)OC)C1c1ccc(C)cc1 (stereo not given)
    6.8% | i | x
- O=C(c1ccc2c(c1)OCO2)N(c1ccc(Cl)cc1)C1C=CS(=O)(=O)C1 (stereo not given)
    -4.0% | i | 1.4
- CCc1ccc(OCC(=O)N(C)C)c(Br)c1
    0.2% | i | 1.9
- Cc1nn(-c2ccc(F)cc2)c(C)c1NS(=O)(=O)c1ccc(Cl)cc1
    -0.6% | i | -0.72
- CCOc1cccc(N2C(=O)CC(N3CCN(c4nc5ccccc5s4)CC3)C2=O)c1 (stereo not given)
    -1.6% | i | x
- COc1ccc(-c2nsc3c(N4CCCCC4)ncnc23)cc1
    1.3% | 0.27µM* | x
- Cc1nn(-c2ccccc2)c2c1C1(C(=O)N(C(C)C)c3ccccc31)C(C#N)=C(N)O2 (stereo not given)
    -4.6% | i | -0.31
- CCn1c(CNc2ccc(C(=O)O)cc2)nc2ccccc21
    32% | i | x
- O=C(Cn1cccc1)N1CCN(c2ccc(F)cc2)CC1
    4.1% | i | 0.08
- COC(=O)/C=c1/s/c(=C(\C#N)C(=O)NCc2ccco2)n(-c2ccccc2)c1=O
    -25% | i | -0.34
- Cc1ccc(Nc2ccc(C(=O)O)cc2N)cc1
    1.7% | i | x
- NC(=O)c1c(NC(=O)CSc2nnc(-c3ccco3)n2-c2ccccc2)sc2c1CCC2
    -6.6% | i | -0.76
- CN1CCN(S(=O)(=O)c2ccc(NC(=O)c3csc4ccccc34)cc2)CC1
    6.9% | i | 1
- C=CCn1c(SCC(C)=O)nnc1-c1cc(-c2ccccc2)sc1N
    -1.5% | i | x
- O=C(CSc1nnc(CN2CCOCC2)n1-c1ccc(Cl)cc1)N1CCc2ccccc21
    -1.9% | i | 0.11
- CCN1CCN(c2cc(C)c3cc(NC(=O)c4ccncc4)ccc3n2)CC1
    -0.9% | i | -0.38
- Cc1noc(C)c1C(=O)N1CCc2ccccc21
    -5.2% | i | -0.28
- O=C(NC(=O)N1CCN(c2ccccc2F)CC1)c1ccccc1
    4.7% | i | 0.46
- COc1cc(OC)c(C2SCCN2S(=O)(=O)c2ccc(F)cc2)cc1OC (stereo not given)
    4.6% | i | 0.48
- O=C(Nc1ccc(Cl)c(C(F)(F)F)c1)N1CCCC(O)C1 (stereo not given)
    -3.1% | i | 0.07
- CCOc1cccc(=O)c2c(C)oc(C)c12
    26% | i | x
- Cn1c(Cn2cnc3ccccc32)nc2ccccc21
    -5.4% | i | 0.27
- COC(=O)c1cc2occc2n1CC(=O)Nc1cc(OC)cc(OC)c1
    -4.3% | i | -1.1
- O=C(NC1CCCC1)C(c1cccs1)N(CC1CCCO1)C(=O)Cc1cccs1 (stereo not given)
    8.9% | i | 1.2
- COCCn1nnnc1CN(CCc1ccccc1)Cc1cc2ccc(C)cc2[nH]c1=O
    -6.4% | i | -0.03
- CCn1nnnc1-c1ccc(OC)c(S(=O)(=O)NCCc2ccccc2)c1
    2.5% | i | -0.7
- Cc1cc(C)nc(SCc2nnc(SCC(=O)Nc3nccs3)n2Cc2ccco2)n1
    -1.1% | i | 2.3
- CN(C)c1cccc(NC(=O)CCc2ccccc2)c1
    -0.2% | i | 1.4
- Cc1ccc(N/C(CSC(N)=O)=N\S(=O)(=O)c2ccc(C)cc2)cc1
    7.2% | i | x
- Cn1c(CNC(=O)c2ccco2)nnc1SCC(=O)N1c2ccccc2Sc2ccccc21
    2.7% | i | -0.07
- COc1ccc(S(=O)(=O)N(C)CC(=O)N2CCN(C)CC2)cc1C
    -0.3% | i | -0.42
- CC(C)(C)P(=O)(CO)c1ccccc1 (stereo not given)
    -3.6% | i | 1.1
- CN(C)c1nc(N)nc(CSc2nnnn2-c2ccc(F)cc2)n1
    1.4% | i | x
- N#Cc1cc2c(nc1SCC(=O)Nc1sc3c(c1C#N)CCC3)CCCCC2
    -6.3% | i | -0.1
- COc1ccc(N(C)C(=O)CC2(CC(=O)O)CCCCC2)cc1
    -1.1% | i | 0.62
- CCOC(=O)CCSc1nnc(-c2cccnc2)n1-c1ccccc1OC
    -8.3% | i | -0.46
- Cc1occc1C(=O)Nc1cc(=O)n(C)c(=O)n1C
    12% | i | 1.5
- c1ccn(-c2ccc(N3CCOCC3)cc2)c1
    -4.6% | i | x
- Cc1occc1C(=O)Nc1sc2c(c1C(N)=O)CCC(C(C)(C)C)C2 (stereo not given)
    -2.6% | i | x
- CCc1ccccc1NC(=O)N1C2CCCC1CC(NC(C)=O)C2 (stereo not given)
    -0.1% | i | 0.45
- COC(=O)CSc1ncnc2c1cnn2Cc1ccccc1
    -0.5% | i | 0.51
- CCS(=O)(=O)N1CCN(C(=O)c2cccc(OC)c2)CC1
    1.2% | i | -0.87
- CC(=O)c1cccc(N(CC(=O)N2CCCC2)S(C)(=O)=O)c1
    1.9% | i | -0.1
- CCOC(=O)N1CCN(C(=O)CN(C2CCCCC2)S(=O)(=O)c2ccc(F)cc2)CC1
    6.3% | i | -0.3
- O=C(O)CN1CCN(Cc2ccccc2Cl)C1=O
    -14% | i | -0.51

Carrying on.
Values in the order: Hsc70 ATP site | MT1-MMP reporter | WNV NS2B-NS3 inh
- O=C(CN1C(=O)CSC1=O)Nc1ccc(C(=O)O)cc1
    5.5% | i | 0.41
- CCCCCCCOc1ccc(OC(=O)c2cccnc2)cc1
    -0.2% | i | x
- COc1cccc(C(=O)N(Cc2ccc(N(C)C)cc2)C2CCS(=O)(=O)C2)c1 (stereo not given)
    -2.6% | i | 0.17
- N#CC1=C2SCN(Cc3ccco3)CN2C(=O)CC1c1ccccc1F (stereo not given)
    -1.3% | i | x
- COCCn1c(=O)[nH]c2cc(C(=O)NCCN3CCN(c4ccccc4F)CC3)ccc2c1=O
    -13% | i | -0.75
- Cc1[nH]n(-c2cccc(Cl)c2)c(=O)c1/C=N/n1c(C)nc2ccccc2c1=O
    0.3% | i | x
- CCN1C(=O)N/C(=C/c2ccc(Sc3ccc(C)cc3)o2)C1=O
    1.7% | i | x
- Cn1c(=O)c2c(nc(N3CCCCCC3)n2CC(O)COc2ccccc2)n(C)c1=O (stereo not given)
    3.1% | i | 0.15
- CN1CCN(C(=O)c2ccc(C3SCC(=O)N3Cc3ccco3)cc2)CC1 (stereo not given)
    7.2% | i | 0.53
- O=C(COc1ccccc1)NCCc1cn2ccsc2n1
    2.8% | i | 0.62
- CCOC(=O)c1c(C)c(C(=O)NCCN2CCOCC2)c(C)n1CC
    -4.3% | i | -0.36
- CCc1ccc(C2CC(c3ccc(C)cc3)Nc3nc(N)nn32)cc1 (stereo not given)
    4.0% | i | -0.04
- CCOC(=O)N1CCN(Cc2cc(=O)oc3cc4c(cc23)CCC4)CC1
    4.4% | i | -1.1
- COc1cc(C2c3c(oc4ccc(Cl)cc4c3=O)C(=O)N2Cc2ccco2)cc(OC)c1OC (stereo not given)
    3.8% | i | -0.79
- COc1ccc(OC)c(-c2cc(C(=O)N3CCN(c4ncccn4)CC3)c3ccccc3n2)c1
    -2.7% | i | 1.8
- O=C(CSC1=NCCS1)Nc1ccc(S(=O)(=O)N2CCCCCC2)cc1
    1.4% | i | -0.29
- COc1ccccc1CNC(=O)CNCC1CCCO1 (stereo not given)
    1.2% | i | 0.99
- COc1ccc(NC(=O)c2cccc(NC(=O)c3ccco3)c2)c(OC)c1
    0.2% | i | -1
- C=CCc1c(C)nc(SCc2nc3ccccc3c(=O)[nH]2)[nH]c1=O
    3.0% | i | -0.18
- O=C(C1CCN(S(=O)(=O)N2CCOCC2)CC1)N1CCN(Cc2ccccc2)CC1
    0.5% | i | -0.72
- CCC(=O)Nc1ccccc1N1CCN(S(C)(=O)=O)CC1
    3.8% | i | -1.4
- CC(C)CC(c1nnnn1C(C)C)N1CCN(c2ccccc2)CC1 (stereo not given)
    6.6% | i | x
- Cc1nc2ccccn2c1C(=O)N/N=C/c1cc(C)n(-c2ccc(Br)cc2)c1C
    -1.8% | i | x
- CSCCC(NC(=O)C1CCC(C)CC1)C(=O)O (stereo not given)
    0.8% | i | -0.48
- c1ccc2c(c1)NC1(CCCCCC1)n1c-2nc2ccccc21
    6.3% | i | x
- CC(C)(C)N(C=C(Cl)Cl)C(=O)NC1CCCCC1
    -1.9% | i | -0.69
- Cc1sc2c(c1C)C(=O)NC(c1cccc(O)c1)N2 (stereo not given)
    -7.2% | i | 0.62
- Cn1cccc1-c1nc2ccc(NC(=O)c3ccccc3)cc2[nH]1
    -5.5% | i | 0.98
- Cc1ccc(Cl)cc1-n1c(=O)cc(N2CCN(C(=O)c3ccco3)CC2)[nH]c1=O
    -15% | i | 0.86
- CNC(=O)C1CC(=O)N(CCCc2ccccc2)C(=Nc2ccccc2)S1 (stereo not given)
    5.3% | i | x
- Cc1ccc(Cl)cc1NC(=O)Cn1cc2c(n1)CCCC2
    -0.6% | i | -0.73
- Cc1ccc(N=Cc2c(O)n(C)c(=O)n(C)c2=O)nc1
    0.6% | i | -0.87
- C=CCC(NCc1ccco1)c1ccc(OC)c(OC)c1 (stereo not given)
    -0.2% | i | x
- O=C(c1ccccc1-c1nc2ccccc2[nH]1)N1CCCCC1
    5.3% | i | 0.86
- Cc1cccc(OCc2nc(C)cc(=O)[nH]2)c1
    -1.2% | i | -0.12
- COc1ccc(OC)c(C(c2nnnn2Cc2ccccc2)N2CCC(C(N)=O)CC2)c1 (stereo not given)
    4.8% | i | 0.44
- Cc1cc(C)cc(N(CC(=O)N2CCN(Cc3ccccc3)CC2)S(=O)(=O)c2c(C)noc2C)c1
    -2.7% | i | 0.57
- O=C(CCC(=O)Nc1ccccc1)NCCO
    4.5% | i | x
- COc1ccc(CN2CC(C(=O)NCCc3ccccc3)CC2=O)cc1 (stereo not given)
    1.7% | i | x
- CCOC(=O)N1CCN(c2c(N3CCc4ccccc43)c(=O)c2=O)CC1
    1.6% | i | -2.8
- CCCCC(=O)Nc1ccc(Br)cc1C(=O)O
    3.9% | i | -0.19
- Nc1c2c(nc3ccccc13)CCC2
    -0.6% | i | 0.43
- Cc1onc(-c2c(F)cccc2Cl)c1C(=O)NCCCN1CCOCC1
    -1.0% | i | -0.72
- CCOC(=O)c1nnsc1NC(C)=O
    -1.6% | i | -0.99
- CCOC(=O)CC(=O)CSc1ncnc2c1oc1ccccc12
    2.2% | i | 1.7
- Cc1sc2ncn(CC(=O)NCCCC(=O)N3CCN(c4ccccn4)CC3)c(=O)c2c1C
    -1.2% | i | -1.1
- CC(=O)Nc1cccc(-c2nnc3n2CC(C)S3)c1 (stereo not given)
    2.1% | i | 0.81
- O=C(CC(c1ccccc1)c1ccccc1)Nc1ncn[nH]1
    -2.0% | i | -0.17
- OC(c1cccc(OCc2ccccc2)c1)c1nnc(-c2ccccc2)o1 (stereo not given)
    -2.4% | i | -0.8
- COc1cc2c(=O)n(Cc3ccccc3)c(=O)n(CC(=O)NCc3ccco3)c2cc1OC
    -4.7% | i | -0.36

A portion of the library, so the mix of outcomes need not match the whole.
